# Bioassay records (PubChem)
# KAT2A inh: blocks human GCN5L2 histone acetyltransferase; Q92830; GCN5L2 HAT assay, ThioGlo1 CoA-SH fluorescence; Potency, µM (series often up to 58.9 µM), inactives show at the highest dose activity change, negative = inhibition, actives largely listed as inhibitors; 0.21% of 390,000 active; AID 504327; active = well fitted inhibition curve with a large enough effect; inconclusive = small, poorly fitted or top-dose-only effect, or another doubt; inactive = no such curve, though single readings can be large or run the other way
# Target sequence (Q92830 whole entry, looked up): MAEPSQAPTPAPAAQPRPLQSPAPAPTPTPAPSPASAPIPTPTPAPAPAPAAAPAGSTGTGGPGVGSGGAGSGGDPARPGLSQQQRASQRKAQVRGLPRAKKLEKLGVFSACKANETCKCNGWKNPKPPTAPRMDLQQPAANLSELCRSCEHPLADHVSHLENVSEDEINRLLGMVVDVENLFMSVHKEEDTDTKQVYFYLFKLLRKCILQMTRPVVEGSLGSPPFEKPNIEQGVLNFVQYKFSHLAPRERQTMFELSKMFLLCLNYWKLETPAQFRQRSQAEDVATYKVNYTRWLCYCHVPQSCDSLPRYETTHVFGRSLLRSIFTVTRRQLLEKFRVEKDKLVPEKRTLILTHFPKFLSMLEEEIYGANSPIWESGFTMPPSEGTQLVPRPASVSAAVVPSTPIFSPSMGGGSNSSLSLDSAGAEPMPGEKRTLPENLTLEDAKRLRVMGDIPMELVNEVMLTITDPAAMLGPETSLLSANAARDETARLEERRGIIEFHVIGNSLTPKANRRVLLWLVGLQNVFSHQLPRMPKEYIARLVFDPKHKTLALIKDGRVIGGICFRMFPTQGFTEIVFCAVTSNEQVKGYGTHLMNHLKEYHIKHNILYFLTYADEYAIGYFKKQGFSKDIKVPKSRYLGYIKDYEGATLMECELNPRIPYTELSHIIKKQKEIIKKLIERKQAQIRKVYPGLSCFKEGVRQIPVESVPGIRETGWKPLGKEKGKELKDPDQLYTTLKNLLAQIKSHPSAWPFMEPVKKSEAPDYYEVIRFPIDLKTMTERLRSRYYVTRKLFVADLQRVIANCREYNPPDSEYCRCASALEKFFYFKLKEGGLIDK
#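 GCN5L2 (20nM final) in 50mM HEPES, 0.1mM EDTA pH 7.5, 0.01% Tween-20 was preincubated 15 min at room temperature with compound, then given ThioGlo1 (50uM), H3(1-25) peptide (75uM) and acetyl-CoA (70uM); CoA-thiol fluorescence (Ex340/Em540) was read at 0 and 20 min.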
# * = called active by the depositor; ? = inconclusive; & = joins results of further samples. % is set by controls: 0 for no effect and ±100 for the full control effect; potency is the fitted concentration of half-maximal effect. The list is partial, and most or all hits are left out here.
structure,KAT2A inh
CC(C)(C)c1nnc(NC(=O)C2CCN(C(=O)c3ccco3)CC2)s1,-3%
C[C@H]1C[C@@H]2[C@@H]([C@@H](O)C[C@@]3(C)[C@H]2CC[C@]3(O)C(=O)CO)[C@@]2(C)C=CC(=O)C=C12,?
O=S(=O)(c1ccc2nc(SCc3cccc(Cl)c3)[nH]c2c1)N1CCOCC1,-3%
CC(C)(C)c1ccc(C(=O)c2c[nH]c(C(=O)O)c2)cc1,-3%
CC1=C(C(=O)Nc2ccccc2Cl)C(c2cccs2)n2ncnc2N1 (stereo not given),0%
Cn1cc(CN2CCC(n3nccc3NC(=O)CCCc3ccccc3)CC2)cn1,0%
CCn1c(COc2ccc(C)cc2)nnc1SCc1ccc(C#N)cc1,26%
CC(C)OC(=O)NCCOC(=O)Nc1cccc(Cl)c1,-17%
CN=c1scc(C)n1/N=C/c1ccc2c(c1)OCO2,-6%
Cc1cc(NC(=O)CSC2=NCCS2)no1,17%
COc1ccccc1N1CCN(C(=O)CCc2nnc3ccc(N4CCCC4)nn23)CC1,0%
O=c1[nH]n(-c2ncnc3c2cnn3-c2ccccc2)c(=O)c2ccccc12,-4%
CC(C)C(NC(=S)Nc1ccccc1)C(=O)O (stereo not given),3%
COc1ccc(C(=O)NNC(=S)NC(=O)c2cccnc2)cc1,-2%
COc1cc2ccccc2cc1C(=O)N1CCCC(C(F)(F)F)C1 (stereo not given),-1%
O=C1N=C(N2CCOCC2)CS1,-7%
CC1CCCCC1NC(=O)CCS(=O)(=O)c1ccc2c(c1)NC(=O)CO2 (stereo not given),-3%
CCOC(=O)C1CCN(C(=O)Cn2c(=O)oc3cc(S(=O)(=O)N4CCC(C)CC4)ccc32)CC1,-6%
O=C(CN(Cc1cccs1)C(=O)CSc1nnc(COc2ccccc2)o1)NC1CCCC1,-13%
COc1ccc(S(=O)(=O)N(CCCN2CCOCC2)Cc2ccc(OC)c(OC)c2)cc1,-5%
Cc1oc2ncn(CC(C)C)c(=O)c2c1C(=O)N1CCN(c2cccc(C(F)(F)F)c2)CC1,29%
CCOC(=O)c1c(C)oc2cc(Br)c(O)c(Br)c12,1%
O=C(Nc1ccc2cn[nH]c2c1)c1ccccc1F,1%
Cc1ccc(S(=O)(=O)N2CCN(Cc3ccc4c(c3)OCO4)CC2)cc1,-2%
COc1ccc(NC(=O)CCNC(=O)c2ccc([N+](=O)[O-])cc2)cc1S(=O)(=O)N1CCCCC1,-2%
Cc1nnc(SCc2ccccc2)[nH]c1=O,?
COc1ccc(N2C(=O)C3C(C2=O)C(C(=O)c2ccccc2)N2CCCC32)cc1 (stereo not given),-6%
Cc1nc2scc(C)n2c(=O)c1S(=O)(=O)NCc1ccccc1,-5%
O=C(Nc1cccc(Br)c1)c1cc(-c2ccc3c(c2)OCCO3)on1,-11%
CCCOc1ccc(C(=O)Nc2ccc(C)cc2[N+](=O)[O-])cc1,31%
O=C(Cn1nc(C(F)(F)F)c2c1CCC2)Nc1ccc(Cl)cc1,-11%
Cc1c(Br)cc(C(=O)NCCCN2CCOCC2)c(C)c1C,-3%
COc1cccc(C2CC(c3cccc(Br)c3)n3ncnc3N2)c1 (stereo not given),2%
Cc1cc(C)cc(N(CC(=O)NC(C)(C)C)C(=O)CCC(=O)Nc2ccccn2)c1,0%
O=C1CC(N2CCN(C(c3ccccc3)c3ccccc3)CC2)C(=O)N1 (stereo not given),-1%
O=C(CC1SCCNC1=O)Nc1ccc(F)c(Cl)c1 (stereo not given),-7%
Cn1nccc1NC(=O)NC(=O)c1c(Cl)cccc1Cl,-22%
Cc1nc2nc(-c3cccnc3)nn2c(C)c1Cl,-2%
CCN(c1cccc(C)c1)S(=O)(=O)c1ccc2[nH]c(=O)c(=O)[nH]c2c1,4%
COC(=O)C1=C(C)NC(=S)NC1c1ccc(OCC(=O)N2CCCCC2)c(OC)c1 (stereo not given),-9%
CCc1ccc(C2N3CC4([N+](=O)[O-])CN2CC([N+](=O)[O-])(C3)C4(C)C)cc1 (stereo not given),0%
N#CC(c1ccccc1)N(CCCCl)C(=O)c1ccccc1 (stereo not given),-2%
O=C(O)c1cccc(-n2nnnc2SCc2ccccc2Cl)c1,-5%
O=C(CSc1cccc[n+]1[O-])NCCCc1ccccc1,-3%
CCc1ccccc1NC(=O)CN1C(=O)CCc2cc(S(=O)(=O)N3CCCCC3)ccc21,2%
CCC(C(=O)Nc1cccc(C(=O)O)c1)c1ccccc1 (stereo not given),1%
O=C1c2nc3cc(-c4ccco4)[nH]n3c(=O)c2CN1C1CCCCC1,-9%
c1ccc2oc(-c3csc(N4CCOCC4)n3)cc2c1,-9%
COC(=O)c1ccc(NC(=O)CSc2nnc(CNc3ccc(F)cc3)n2C)cc1,1%
C/C(=N\Nc1nc2ccccc2[nH]1)c1ccc(C)o1,1%
CC1(C)CC(=O)C2=C(C1)N(c1ccc(F)cc1)C(=O)NC2(C(F)(F)F)C(F)(F)F,1%
Cc1nn(Cc2ccccc2)c(Cl)c1C(=O)NCc1ccco1,-19%
O=C(c1ccco1)N1CCN(c2nc(-c3ccc(F)cc3)cs2)CC1,5%
Cc1c(Cl)c(C(=O)N2CCCCCC2)nn1C,-2%
O=C(COC(=O)c1ccccc1F)NC1CC1,0%
CC1Cc2ccccc2N1C(=O)CSc1ccccc1 (stereo not given),0%
O=C(COc1ccc(Cl)cc1)NCc1nnc(SCC(=O)Nc2ccccc2F)o1,-4%
COC(=O)c1ccc(NS(=O)(=O)c2c(C)[nH]c(C)c2C(=O)N2CCCC2)cc1,-2%
CCc1nnc(NC(=O)CSc2nc(C)cc(C)c2C#N)s1,3%
Cc1cc(C)n(-c2ccc(NC(=O)C3CCCCN3C(=O)c3ccoc3C)cc2)n1 (stereo not given),-6%

# The listing continues.
structure,KAT2A inh
CC(C)NC[C@H](O)c1cc(O)cc(O)c1,5%
O=C1c2ccccc2[C@@H]2C[C@@H](O)[C@H](Nc3ccccc3Cl)CCN12,-2%
COC(=O)[C@]1(Cc2ccccc2)N[C@H](CN(C)C(=O)Nc2ccc(C(F)(F)F)cc2)[C@@H]2C(=O)N(Cc3ccccc3)C(=O)[C@@H]21,-9%
COc1ccc(C(=O)NCCN2CCN(C(=O)c3ccc(OC)c(OC)c3)CC2)cc1OC,-3%
Brc1ccc(-c2nn3c(-c4ccccn4)nnc3s2)o1,-18%
O=C(CCn1c(=O)oc2ccccc21)N1CCCCCC1,-8%
CC(=O)Nc1ccc(NC(=O)CSc2nnc(-c3ccco3)o2)cc1,-9%
CCOC(=O)C1CCN(C(=O)c2cc3cc4ccc(OC)cc4nc3o2)CC1,-22%
Cc1cc(NS(=O)(=O)c2ccc(NC(=O)CCN3C(=O)c4ccccc4C3=O)cc2)no1,-2%
O=C(Cn1cncn1)N/N=C/c1c2ccccc2cc2ccccc12,-3%
COc1cccc(NC(=O)Cn2c(=O)oc3cc(S(=O)(=O)N4CCCC4)ccc32)c1,-1%
Cc1cc(C)n2c(-c3ccccc3Cl)nnc2n1,-2%
Cc1nn(CCCC(=O)Nc2ccccn2)c(C)c1[N+](=O)[O-],-2%
Cc1ccc(Cl)cc1N1CCN(C(=O)Cn2cnc3sc(C)c(S(=O)(=O)N4CCC(C)CC4)c3c2=O)CC1,0%
CNC(=O)C(=O)Nc1ccc(C)cc1C,3%
COc1cccc(N2CC(NC(=O)C(=O)c3c[nH]c4ccccc34)CC2=O)c1 (stereo not given),-3%
CCC1OC(=O)C(C)C(OC2C[C@@](C)(OC)C(O)C(C)O2)C(C)C(O[C@@H]2OC(C)CC(N(C)C)C2O)[C@](C)(O)CC(C)C(=NOCOCCOC)C(C)C(O)[C@]1(C)O (stereo not given in full),1%
CC1CCCC(C)N1CCNC(=O)Cn1nc(-c2ccccc2)ccc1=O (stereo not given),1%
CCN(CCn1cccn1)C(=O)C1CCC(=O)N(CCN2CCOCC2)C1 (stereo not given),-5%
CCOC(=O)C1CCCN(C(=O)c2cn(CC(C)C)c(=O)c3cc(OC)c(OC)cc23)C1 (stereo not given),-1%
C=CCc1ccc(OC)c(OC)c1,?
COc1ccc(N)cc1-n1cnnn1,-2%
O=S(=O)(c1ccc(Cl)cc1)N1CCN(Cc2c[nH]c3ccccc23)CC1,-3%
COCCN(Cc1ccccc1)C(=O)C1CCN(S(=O)(=O)c2ccc3c(c2)OCCO3)CC1,1%
Cc1ccc2c(c1)nnn2C1CCN(S(=O)(=O)c2ccc(C(=O)N(C)C3CCCCC3)cc2)CC1,-4%
CNc1nc(NCCOC23CC4CC(CC(C4)C2)C3)nc(OCC(F)(F)F)n1,22%
CCCC(=O)Nc1ccc(Cl)c(-c2nc3ncccc3o2)c1,3%
CC(C)C(NS(=O)(=O)c1cccs1)C(=O)NCCN1CCN(c2ccccc2)CC1 (stereo not given),0%
CCN(CC)CCCN1C(=O)C(O)=C(C(=O)c2ccc(C)o2)C1c1ccc(C)o1 (stereo not given),17%
O=C(CCc1ccccc1)Nc1cccnc1Cl,-1%
CC(C)CC1Nc2ccc(C(=O)NCCCN3CCCCC3C)cc2NC1=O (stereo not given),-8%
Cc1nc(SCC(=O)NCC(F)(F)F)c2c(-c3cccs3)csc2n1,27%
Cc1cccc(NC(=O)COc2ccc(-c3nn(C)c(=O)c4ccccc34)cc2)c1,-11%&-13%
CCC(=O)Nc1cccc(NC(=S)NC(=O)c2ccccc2)c1,-7%
CCOC(=O)C(CCc1ccccc1)NC1CCc2ccccc2N(CC(=O)O)C1=O (stereo not given),0%&-12%
COc1ccccc1NC(=O)Nc1ccncc1,1%

# 2 successive entries out of the list so far, for reference:
structure,KAT2A inh
CCOC(=O)C(CCc1ccccc1)NC1CCc2ccccc2N(CC(=O)O)C1=O (stereo not given),0%&-12%
COc1ccccc1NC(=O)Nc1ccncc1,1%

# New compounds follow:
structure,KAT2A inh
Cc1nn(C)c(Cl)c1/C=N/OC(=O)c1ccccc1,-10%
Cc1ccc(C(=O)N2CC(C)CC(C)C2)cc1NC1=NC2CS(=O)(=O)CC2S1 (stereo not given),?
CCOC(=O)c1nnc(-c2cccs2)nc1Oc1ccc(Cl)cc1,-9%
O=C(Nc1ccc(Cl)cc1)c1cc(-c2cccs2)on1,?
COc1ccc(OC)c(C2=Nn3c(nnc3-c3cc(C)[nH]n3)SC2)c1,4%
S=C(NCCN1CCOCC1)Nc1ccc(Cl)cc1Cl,0%
CN(Cc1ccco1)C(=O)Cn1c(=O)oc2cc(S(=O)(=O)NCc3ccccc3)ccc21,-2%
CC(C(=O)O)c1cccc(C(=O)c2ccccc2)c1 (stereo not given),-1%&2%&-23%
CCC(=O)N(Cc1cc2ccccc2[nH]c1=O)c1ccc(OC)cc1,10%
COc1ccc(-c2nc(CSCC(=O)NCCC(C)C)c(C)o2)cc1OC,-7%
CCOC(=O)c1ccc(NC(=S)N2CCN(c3ccc(N4CCOCC4)nn3)CC2)cc1,-1%
CC(=O)NC(CC(=O)NNC(=O)C(C)Oc1ccccc1F)c1ccccc1 (stereo not given),-6%
COc1ccc(CN2CCCC(C(=O)c3cccc(OC(C)C)c3)C2)cc1Cn1cccn1 (stereo not given),-2%
CN(C)S(=O)(=O)N1CCC(CO)(Cc2cccc(C(F)(F)F)c2)CC1,1%
Cc1nc(N2CCN(S(=O)(=O)c3ccc(F)cc3)CC2)c2c(C)c(C)sc2n1,-3%
COc1ccccc1CNC(=O)c1csc2c1CCCC2,-2%
O=C(Nc1ccccc1)C1CCN(S(=O)(=O)c2ccc3[nH]c4c(c3c2)CCCCC4)CC1,-18%
N#C/C(=C\c1ccccc1Cl)C(=O)NC(=O)Oc1ccccc1,-11%
Cc1ccc(N=c2c([N+](=O)[O-])nn(-c3ccccc3)n2O)c(C)c1,-12%
O=C(c1ccc(O)cc1)c1ccc(O)cc1O,-14%
O=C(c1ccc(N2CCOCC2)nc1)N1CCCCC1,0%
Cn1c(C(=O)O)c(CC(=O)Nc2ccc3c(c2)OCCO3)c2ccccc21,-5%
CCC1CCc2sc(C(=O)N3CCCN(C)CC3)cc2C1 (stereo not given),-10%
CCN(CC)C(=O)CSc1nc2nc(C)cc(C)c2c(=O)[nH]1,-5%

# Three compounds already listed, sorted by the number in KAT2A inh, rising.
structure,KAT2A inh
O=C(c1ccc(O)cc1)c1ccc(O)cc1O,-14%
CCOC(=O)c1ccc(NC(=S)N2CCN(c3ccc(N4CCOCC4)nn3)CC2)cc1,-1%
COc1ccccc1N1CCN(C(=O)CCc2nnc3ccc(N4CCCC4)nn23)CC1,0%

# The results go on:
structure,KAT2A inh
COc1ccc(Cn2nnnc2C(c2ccc(N(C)C)cc2)N2CCC(C)CC2)cc1 (stereo not given),-7%
COc1ccc(N2CCN(C(=O)CNC(=O)c3cn(-c4ccccc4OC)c(=O)c4ccccc34)CC2)cc1,-9%
Cc1sc2ncn(CC(=O)NCCc3ccccc3)c(=O)c2c1C,4%
CCOC(=O)C1=C(C)NC(C)=C(C(=O)OC)C1c1cccc(Cl)c1Cl (stereo not given),-18%&-11%&-18%
CCNc1c2c3c(cccc3n(C)c1=O)C(=O)c1ccccc1-2,-9%
Cc1nc2cc(C(=O)OCC(=O)N(CC(C)C)C3CCS(=O)(=O)C3)ccc2n1-c1ccccc1 (stereo not given),1%
COc1ccc(F)cc1S(=O)(=O)Nc1ccc2c(c1)OCCO2,3%
Cc1cccc(CCNC(=O)c2cc3ccccn3n2)c1,3%
C[C@H]1C[C@@H]2[C@H]([C@@H](O)C[C@@]3(C)[C@H]2CC[C@]3(O)C(=O)CO)[C@@]2(C)C=CC(=O)C=C12,1%
